Sfp PPTase inh – qHTS Assay for Inhibitors of Bacillus subtilis Sfp phosphopantetheinyl transferase (PPTase) | Biochemical Sfp PPTase activity, qHTS | Potency, µM, inactives show max response, negative = inhibition, actives largely listed as inhibitors | 3.5% of 310,000 active | AID 1490, 2009; active means well fitted inhibition curve with a large enough effect; inconclusive means small, poorly fitted or top-dose-only effect, or another doubt; inactive means no such curve, though single readings can be large or run the other way;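 further: the enzyme is Sfp with the accession as filed and its product quenches rhodamine fluorescence; potency means the concentration at half of the fitted maximal effect; 0% = enzyme reaction without inhibitor and -100% = no enzyme wells; top concentration of the series not given in the record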
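Reaction rates are the 30-min fluorescence difference (ex 525, em 598 nm) in wells containing 15 nM Sfp, 5 uM rhodamine-CoA and 12.5 uM BHQ-2-YbbR at pH 7.6 with 10 mM MgCl2.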
PINK1 modulator – A Quantitative High throughput Screen to Identify Chemical Modulators of PINK1 Expression | PINK1 immunofluorescence, high-content cytometry, 24 h | AID 624263, 2012 | 0.2% of 410,000 active | Potency, µM (doses to about 76.6 µM), without a hit: at the top dose activation (PINK1 increase), most hits filed as activators; active = well fitted activation curve with a large enough effect; inconclusive = small, poorly fitted or top-dose-only effect; inactive = flat fitted curve, though single readings scatter; cell line not stated here;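 further: potency means the concentration at half of the fitted maximal effect; % of control where 0% means no effect; nearly all actives have a fitted effect of over 65% in size; a mitochondrial uncoupler was the plate control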
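A stable cell line was treated with compounds at 5 concentrations for 24 hours, with CCCP as control. PINK1 levels and mitochondrial localization were measured by immunofluorescence with mitochondrial, cell and nuclear markers after fixation, read by laser-scanning cytometry.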
Menin MLL FP FL – qHTS Assay for Inhibitors Targeting the Menin-MLL Interaction in MLL Related Leukemias: Competition With Fluorescein Labeled MLL-derived Peptide; Fluorescence polarization, fluorescein-MLL peptide displacement from menin; FP activity change, % at 61.4 µM; 290,000 tested, under 10 active; AID 1766, 2009; inconclusive = falling polarisation curve, or a change in total fluorescence; inactive = total fluorescence flat and polarisation flat or rising; no compound was filed as active; the % refers to the polarisation; negative = inhibition;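 further: % of control where 0% means no effect; inhibitors lower the polarisation; unlabelled MLL peptide was the positive control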
ClpP mod – qHTS Assay for Activators of ClpP. ATP-dependent Clp protease proteolytic subunit (Bacillus subtilis (strain 168)), P80244. purified B. subtilis ClpP, FRET peptide cleavage, 20 min. Potency, µM (highest dose often 57.5 µM), without a hit: at the top dose activity change, negative = active. 1.9% of 340,000 active. AID 651965, 2013; active = well fitted falling curve with a large enough effect; inconclusive = small, poorly fitted or top-dose-only effect; inactive = no such curve, though single readings can be large or run the other way; further: potency means the concentration at half of the fitted maximal effect; the source files actives as falling curves though it sought activators and does not explain the sign; nearly all actives have a fitted effect of over 65% in size; many hits overshoot -100%
Target sequence (P80244 whole entry, looked up): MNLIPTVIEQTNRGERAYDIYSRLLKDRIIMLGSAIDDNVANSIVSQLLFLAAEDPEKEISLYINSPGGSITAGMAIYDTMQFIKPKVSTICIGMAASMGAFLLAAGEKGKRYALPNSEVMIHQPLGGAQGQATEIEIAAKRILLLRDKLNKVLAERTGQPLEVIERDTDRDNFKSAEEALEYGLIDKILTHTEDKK
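Buffer: 100 mM Tris/HCl pH8, 100 mM KCl, 0.05% low protease BSA, 2.5% glycerol, 0.01% Tween-20. ClpP 10 microg/mL final; 20 min RT; delta FRET normalized to ADEP and DMSO controls.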
TRPML1 blocker – qHTS for Inhibitors of the Human Mucolipin Transient Receptor Potential 1 (TRPML1); Mucolipin-1 (Homo sapiens), Q9GZU1; 0.02% of 390,000 active; activity change, negative = inhibition, % (no concentration beside the values); AID 624415, 2012; TRPML1-inducible cells, Ca2+ dye fluorescence, FDSS; stronger effect = lower value; inhibition of EC80 agonist-evoked calcium signal; in the data active means activity change below about -50%; inconclusive means about -30% to -50%; inactive means above about -30%;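 further: stimulus is agonist 54-4 at its EC80 concentration; on the % scale 0 is the no-effect control and ±100 the full control effect; compound concentration not given in the record; the text of the record puts the active cut at -80%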
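Tet-induced TRPML1-DL cells loaded with Ca8 no-wash calcium dye were read kinetically on FDSS. Compound addition was followed by EC80 agonist 54-4 (4 uM final); inhibition was read over 110 s.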
TRPML1 ag – qHTS for Agonists of the Human Mucolipin Transient Receptor Potential 1 (TRPML1); Mucolipin-1 (Homo sapiens), Q9GZU1; TRPML1-expressing cells, Ca2+ dye fluorescence, FDSS; host cell line not named in the record; reference of the full effect not given here; activation, % (test concentration not listed); 0.12% of 410,000 active; AID 624414, 2012; in the data active = activation above about 50%; inconclusive = about 30% to 50%; inactive = below about 30%; further: 0% is about no effect; the text of the record puts the active cut at 80%
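In this qHTS format, compounds were pin-transferred onto Ca8-dye-loaded TRPML1-DL cells induced with Tet overnight, and intracellular Ca2+ fluorescence was recorded kinetically for 110 s after a 10 s baseline. A subsequent 4uM final 54-4 (EC80) addition followed by a second 110 s read served as the antagonist phase.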
TRPV1 potentiator – HTS Assay for Compounds that Act as Potentiators of the Vanilloid Receptor 1 | Transient receptor potential cation channel subfamily V member 1 (Homo sapiens), Q8NER1 | TRPV1-expressing cells, Fluo-8 calcium influx, capsaicin EC20 potentiation; host cell line not named in the record; control for the full effect not named in the record | potentiation, % at 8.33 µM | 0.02% of 320,000 active | AID 540277, 2011; active means potentiation above 80%; inconclusive means 30% to 80%; inactive means below 30%; further: 0% is about no effect
Target sequence (Q8NER1 whole entry, looked up): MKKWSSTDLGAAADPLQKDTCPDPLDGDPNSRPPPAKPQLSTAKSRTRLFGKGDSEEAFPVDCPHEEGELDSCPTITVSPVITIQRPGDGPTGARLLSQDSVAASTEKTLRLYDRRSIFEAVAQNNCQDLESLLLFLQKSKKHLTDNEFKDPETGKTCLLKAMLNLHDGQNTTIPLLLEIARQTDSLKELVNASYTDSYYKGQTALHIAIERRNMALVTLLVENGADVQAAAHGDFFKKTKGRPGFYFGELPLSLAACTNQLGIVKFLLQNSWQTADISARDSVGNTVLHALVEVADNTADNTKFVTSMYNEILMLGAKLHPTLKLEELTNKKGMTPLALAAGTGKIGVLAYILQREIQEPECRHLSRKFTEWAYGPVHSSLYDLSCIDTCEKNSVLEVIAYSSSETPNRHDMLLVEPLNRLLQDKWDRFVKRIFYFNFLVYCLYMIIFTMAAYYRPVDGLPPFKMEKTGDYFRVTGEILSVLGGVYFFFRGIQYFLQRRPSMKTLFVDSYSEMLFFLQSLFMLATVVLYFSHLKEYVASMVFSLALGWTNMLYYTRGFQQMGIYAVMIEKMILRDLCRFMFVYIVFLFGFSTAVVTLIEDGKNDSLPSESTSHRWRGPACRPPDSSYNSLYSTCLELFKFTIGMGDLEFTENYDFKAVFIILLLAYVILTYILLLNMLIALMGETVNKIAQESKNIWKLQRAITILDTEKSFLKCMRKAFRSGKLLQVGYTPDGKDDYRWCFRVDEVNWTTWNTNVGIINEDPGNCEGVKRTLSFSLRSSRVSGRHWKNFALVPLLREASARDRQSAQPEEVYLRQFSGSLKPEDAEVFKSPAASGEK
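Fluo-8 calcium influx in TRPV1-expressing cells, kinetic read (ex 480/em 520 nm). Compound added and read 3 min for agonist activity, followed by capsaicin at EC20 final and 2 min further read for enhancement.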
An asterisk follows results filed as active; u = inconclusive; x = not tested or not shown; & = joins results of further samples; [ ] = another dose, or the depositor's remark.

SMILES	Sfp PPTase inh	PINK1 modulator	Menin MLL FP FL	ClpP mod	TRPML1 blocker	TRPML1 ag	TRPV1 potentiator
CCOC(=O)c1ccccc1NC(=O)[C@@H]1CCCN1C(=O)OC(C)(C)C	7%	-0.1%	-2.9	-12%	-20	-0.5	-15
Cc1ccc(-c2cc(C(=O)N/N=C/C=C/c3ccco3)c3ccccc3n2)cc1C	28µM*	1.7%	3.5	u	-6	1.6	0
O=C(Nc1ccccc1)c1ccc(C(=O)Nc2ccccc2)nc1	3%	3.9%	-0.2	x	11	1.4	-9
CCOC(=O)c1scc(-c2ccc(C)cc2)c1S(=O)(=O)Nc1ccc(OC)c(Cl)c1	x	4.1%	x	-0.6%	0	0.1	x
Nc1ncnc2nc(SCC(=O)N3CCN(c4ccccc4)CC3)[nH]c12	-2%	4.8%[38.3 µM]	0.1	1.3%	13	0.4	-6
CCCCOc1ccc(-c2cn3ccccc3n2)cc1[N+](=O)[O-]	u	4.0%	7.9	-2.0%	-8	-1.3	-14
COc1ccc(-c2nn(-c3ccccc3)cc2/C=C/C(=O)OCC(=O)Nc2ccc(C#N)cc2)cc1	27%	7.8%	5.9	28µM*	21	-1.2	13
COc1ccc(S(=O)(=O)NCCOc2ccccc2)cc1C	-9%	1.4%	7.9	x	-10	1.5	11
Cc1cc(S(=O)(=O)Nc2ccc(-c3ccc(N4CCCCCC4)nn3)cc2)c(C)cc1Cl	x	0.0%	x	-5.7%	47	-0.5	x
COc1ccc(C2(c3ccc(OC)cc3)NC(=O)N(CC(=O)NC3(C#N)CCCC3)C2=O)cc1	x	-1.6%	x	-35%	36	-0.7	0
CN(CC(=O)Nc1ccccc1Cl)C(=O)COC(=O)c1ccc(-c2ccc(O)cc2)cc1	x	13%	x	6.0%	-5	-0.4	x
COc1cc(C)c(Cl)cc1S(=O)(=O)N1CCSC1	8%	2.9%	-0.7	1.8%	28	0.1	6
COc1cccc(C(=O)NNS(=O)(=O)c2ccccc2)c1	x	1.0%	x	0.3%	0	-0.7	x
Cc1ccc(NC(=O)C(C)Sc2nnc(C)n2C)cc1 (configuration not stated)	71µM*	-0.7%	5.6	0.6%	-10	-0.8	6
COc1cc(C(=O)NC2CCCC(C)C2C)ccc1OCC(=O)N1CCOCC1 (configuration not stated)	x	0.3%	x	-0.6%	7	-0.6	-13

3 of these compounds in a different format:
> COc1ccc(-c2nn(-c3ccccc3)cc2/C=C/C(=O)OCC(=O)Nc2ccc(C#N)cc2)cc1
  Sfp PPTase inh: 27%; PINK1 modulator: 7.8%; Menin MLL FP FL: 5.9; ClpP mod: 28µM*; TRPML1 blocker: 21; TRPML1 ag: -1.2; TRPV1 potentiator: 13

> COc1ccc(S(=O)(=O)NCCOc2ccccc2)cc1C
  Sfp PPTase inh: -9%; PINK1 modulator: 1.4%; Menin MLL FP FL: 7.9; ClpP mod: x; TRPML1 blocker: -10; TRPML1 ag: 1.5; TRPV1 potentiator: 11

> Cc1cc(S(=O)(=O)Nc2ccc(-c3ccc(N4CCCCCC4)nn3)cc2)c(C)cc1Cl
  Sfp PPTase inh: x; PINK1 modulator: 0.0%; Menin MLL FP FL: x; ClpP mod: -5.7%; TRPML1 blocker: 47; TRPML1 ag: -0.5; TRPV1 potentiator: x

Further records follow.
SMILES	Sfp PPTase inh	PINK1 modulator	Menin MLL FP FL	ClpP mod	TRPML1 blocker	TRPML1 ag	TRPV1 potentiator
COc1ccc(C)cc1NC(=O)Nc1ccccc1	-12%	4.2%	1.1	0.4%	88	-0.2	-4
Cc1ccccc1C(=O)c1cccn1CC(=O)NCc1ccccc1	18%	1.0%&9.1%	-1.4	1.7%&-0.1%	8&12	1.8&1.7	-11
CN(CCO)c1nc(NCc2ccccc2)c2cnn(C)c2n1	4%	-0.5%	-5.7	-23%	-5	0.1	2
COc1ccc(Cc2nnc(SCc3nc4ccccc4c(=O)[nH]3)n2C)cc1	-7%	x	-3.0	0.1%	-13	0.2	6
Cc1ccc(OCCOc2ccc(Br)cc2/C=N\NC(N)=O)cc1	6%	2.6%	4.7	-0.2%	2	-1.2	-13
CCN(C(=O)CSc1ccc2c(c1)OCCO2)C1CCS(=O)(=O)C1 (configuration not stated)	-4%	-1.5%	-1.2	-0.6%	-2	-0.4	18
CC(C)(C)OC(=O)N[C@H](Cc1ccccc1)C(=O)N1CCC(C(=O)O)CC1	-8%	2.1%	0.6	3.2%	3	-0.3	4
COC(=O)c1ccccc1NC(=O)c1ccc(=O)n(Cc2cccc(C)c2)c1	x	-1.9%	x	-8.7%	12	4.4	x
O=C(CSc1nnc(Cn2cnc3ccccc32)o1)Nc1cccc2ccccc12	6%	0.5%	2.1	-0.7%	2	1.1	7
O=C(CCN1CCOCC1)NNC(=O)c1ccc([N+](=O)[O-])cc1[N+](=O)[O-]	x	1.2%	x	-1.1%	2	-0.5	x
CCCn1cc(SCC(=O)NCc2ccco2)c2ccccc21	-1%	3.5%[38.3 µM]	-0.9	2.4%	-9	3.4	5
COc1ccccc1N(C)S(=O)(=O)c1ccc(C(=O)OCC(=O)NCc2cccs2)cc1	9%	2.0%	3.6	x	6	1.0	-7
Cc1cccc(CNc2ccc(C(CC(N)=O)NC(=O)c3ccccc3)cc2[N+](=O)[O-])c1 (configuration not stated)	-5%	0.5%	3.1	0.6%	-3	-0.5	-10
C/C(=N/NS(=O)(=O)c1ccc(Br)cc1)c1c[nH]c2ccccc12	-1%	1.8%	x	-5.9%	8	-0.5	-1
COc1ccc(Oc2cccc(Cl)c2CNC(=O)CCCC(=O)O)cc1	11%	-0.3%	-2.9	-3.3%	18	0.0	10
CC1(C)Cc2cccc(OCC(O)CN3CCN(c4ccccn4)CC3)c2O1 (configuration not stated)	0%	1.3%	1.4	-15%	10	1.3	9
O=C(Cn1c(=O)oc2ccccc21)c1ccccc1	5%	3.5%	4.1	8.4%	4	0.0	3
CCOc1cc(/C=C2\C(=N)N3N=C(CC)SC3=NC2=O)ccc1OCCOc1ccc(NC(C)=O)cc1	1%	8.5%	2.4	-1.3%	-9	1.2	-3
CCCn1c(N)c(C(=O)CSc2nnc(C3CC3)n2C2CC2)c(=O)[nH]c1=O	x	-0.1%	x	-1.6%	6	0.1	x
COc1ccccc1C=NNC(=O)C(=O)NN=Cc1ccccc1OC	x	7.0%	x	x	-6	2.1	x
Cc1ccc(SCC(=O)OCC(=O)N(C)CC(=O)Nc2ccc(F)cc2)cc1	x	-2.2%	x	x	-12	2.7	4
COC(=O)c1cc2oc(C)cc2n1CC(=O)Nc1ccc(C)cc1C	x	-0.5%	x	-3.2%	14	4.5	x
COc1cccc(NC(=O)CSc2ncc(S(=O)(=O)c3ccccc3)c(=O)[nH]2)c1	24%	2.4%	5.0	0.2%	x	x	12
CN(C)/C=C1/C(=O)Nc2ccccc21	-7%	-3.8%[38.3 µM]	6.0	-2.1%	-14	0.1	-8
COC(=O)C1(C)CCCC2(C)C3CCC(C(C)C)C(CO)C3C(CO)CC12 (configuration not stated)	x	-0.9%	x	-2.2%	6	1.7	x
O=C(NCC(O)c1ccc([N+](=O)[O-])cc1)c1cccc(S(=O)(=O)N2CCCC2)c1 (configuration not stated)	4%	0.5%	-0.7	x	-1	-0.8	-8
CC(C)CCN1CCC(N)=NC1=O	18%	0.0%	0.8	x	2	-0.1	6
COc1ccc(CCNC(=O)c2ccc3c(c2)c(C)c(C)n3Cc2ccccc2)c(OC)c1OC	x	0.7%	x	u	-16	1.3	x
Cc1cccc(OCc2nc3c4c(ncn3n2)-c2ccccc2CC42CCCC2)c1	-2%	4.1%	2.5	-12%	8	-0.1	-9
COc1ccc(CN2CCN(C)CC2)cc1OCc1ccccc1	-16%	-1.1%[38.3 µM]	3.6	0.7%	6	-0.5	2
O=C(CSCc1ccccc1Cl)NCCSc1ccccn1	3%	5.5%	2.8	x	1	-0.6	-8
C=CCn1c(NC(=O)c2ccccc2)nc2ccccc21	0%	6.2%	-6.1	-2.8%	19	4.3	28
Cc1nc2[nH]c(=O)c3c(n2n1)NC1=C(C(=O)CC(C)(C)C1)C3c1ccc(F)cc1 (configuration not stated)	4%	1.9%[38.3 µM]	-1.4	u	5	-0.7	x
CC(Sc1nnc(C(F)(F)F)n1C)C(=O)Nc1ccc(N2CCOCC2)cc1 (configuration not stated)	x	0.1%	x	2.5%	13	0.2	x
COc1ccc(OCc2cc(C(=O)N(C)Cc3cnccn3)no2)c(Cl)c1	4%	-1.6%	0.6	-1.6%	2	0.7	3
COc1ccc2c(c1)C=C(CN1CCN(Cc3ccccc3C)C(CCO)C1)CO2 (configuration not stated)	12%	16%	4.3	x	-4	-0.5	-2
C=CCn1c(NCCc2ccccc2)nc2c1c(=O)n(C)c(=O)n2C	6%	-1.4%	3.6	0.1%	-1	-1.4	-17
O=C(Cc1cccs1)Nn1c(Cc2cccs2)nc2ccccc2c1=O	-12%	1.7%	-1.1	-3.5%	3	-0.1	4
c1ccc(CC2CCN(Cc3nc(-c4ccccc4)no3)CC2)cc1	-6%	u	6.0	-1.1%	-13	-0.4	-5
ClC(Cl)c1nnc(-c2ccccc2)c(-c2c[nH]c3ccccc23)n1	-1%	6.5%	8.1	25µM*	20	1.1	8
NCC(=O)CCC(=O)O	-4%	0.7%	-0.5	-0.2%	1	-0.3	11
CCOC(=O)Cc1ccc(NC(=O)N2CC(C)Oc3ccc(Cl)cc32)cc1 (configuration not stated)	x	0.4%	x	0.7%	-13	2.7	x
CCC(=O)N1CCC(C)(C(=O)Nc2nccc3ccccc23)C1 (configuration not stated)	x	-0.8%	x	u	7	0.0	x
COc1cc(/C=N/NC(=O)c2ccccc2Cl)ccc1Oc1ccc([N+](=O)[O-])cn1	3%	13%	-0.6	0.9%	-10	1.0	21
Cc1cccc(NC(=O)c2ccc3snnc3c2)c1C	x	u	x	-1.5%	3	0.8	x
C=C1SC(=Nc2c(C)cc(C)cc2C)N(C(=O)c2sc3ccccc3c2Cl)C12CCCCC2	4%	2.0%	-2.0	-1.2%	-4	-0.1	29
